From PubChem
TRPML1 blocker = qHTS for Inhibitors of the Human Mucolipin Transient Receptor Potential 1 (TRPML1); TRPML1-inducible cells, Ca2+ dye fluorescence, FDSS; hits give low values; inhibition of EC80 agonist-evoked calcium signal; activity change, negative = inhibition, % (concentration not given with the values); actives 0.02% (n = 390,000); Mucolipin-1 (Homo sapiens), Q9GZU1; AID 624415, 2012; in the data active means activity change below about -50%; inconclusive means about -30% to -50%; inactive means above about -30%;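 also: stimulus is agonist 54-4 at its EC80 concentration; % is scaled to controls: 0 for no effect and ±100 for the full control effect; compound concentration not given in the record; the text of the record puts the active cut at -80%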
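TRPML1-DL cells, Tet-induced overnight (~16 h, 37 °C) at 1,500 cells/well, were loaded with Ca8 no-wash dye plus quencher for 45-90 min at room temperature. Compounds were pinned during FDSS kinetic reading; agonist 54-4 at EC80 (4 uM final) then added.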
PINK1 modulator = A Quantitative High throughput Screen to Identify Chemical Modulators of PINK1 Expression. PINK1 immunofluorescence, high-content cytometry, 24 h. actives 0.2% (n = 410,000). Potency, µM (top dose mostly 76.6 µM), for inactives: at the highest dose activation (PINK1 increase), most hits filed as activators; active = well fitted activation curve with a large enough effect; inconclusive = small, poorly fitted or top-dose-only effect; inactive = flat fitted curve, though single readings scatter; cell line not stated here;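 also: potency is read from the fitted curve at half-maximal effect; % of control where 0% means no effect; nearly all actives have a fitted effect of over 65% in size; a mitochondrial uncoupler was the plate control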
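Stable cell line treated 24 h with compounds at 5 concentrations (CCCP controls), then fixed and immunostained for PINK1 plus nuclear and cell stains; PINK1 immunofluorescence quantified by laser-scanning microplate cytometry.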
Menin MLL FP FL = qHTS Assay for Inhibitors Targeting the Menin-MLL Interaction in MLL Related Leukemias: Competition With Fluorescein Labeled MLL-derived Peptide; 290,000 tested, under 10 active; FP activity change, % at 61.4 µM; Fluorescence polarization, fluorescein-MLL peptide displacement from menin; inconclusive = falling polarisation curve, or a change in total fluorescence; inactive = total fluorescence flat and polarisation flat or rising; no compound was filed as active; the % refers to the polarisation; negative = inhibition;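 also: % of control where 0% means no effect; inhibitors lower the polarisation; unlabelled MLL peptide was the positive control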
TRPV1 potentiator = HTS Assay for Compounds that Act as Potentiators of the Vanilloid Receptor 1. Transient receptor potential cation channel subfamily V member 1 (Homo sapiens), Q8NER1. AID 540277, 2011. actives 0.02% (n = 320,000). TRPV1-expressing cells, Fluo-8 calcium influx, capsaicin EC20 potentiation; host cell line not named in the record; control for the full effect not named in the record. potentiation, % at 8.33 µM; active means potentiation above 80%; inconclusive means 30% to 80%; inactive means below 30%; also: 0% is about no effect
Target sequence (Q8NER1 whole entry, looked up): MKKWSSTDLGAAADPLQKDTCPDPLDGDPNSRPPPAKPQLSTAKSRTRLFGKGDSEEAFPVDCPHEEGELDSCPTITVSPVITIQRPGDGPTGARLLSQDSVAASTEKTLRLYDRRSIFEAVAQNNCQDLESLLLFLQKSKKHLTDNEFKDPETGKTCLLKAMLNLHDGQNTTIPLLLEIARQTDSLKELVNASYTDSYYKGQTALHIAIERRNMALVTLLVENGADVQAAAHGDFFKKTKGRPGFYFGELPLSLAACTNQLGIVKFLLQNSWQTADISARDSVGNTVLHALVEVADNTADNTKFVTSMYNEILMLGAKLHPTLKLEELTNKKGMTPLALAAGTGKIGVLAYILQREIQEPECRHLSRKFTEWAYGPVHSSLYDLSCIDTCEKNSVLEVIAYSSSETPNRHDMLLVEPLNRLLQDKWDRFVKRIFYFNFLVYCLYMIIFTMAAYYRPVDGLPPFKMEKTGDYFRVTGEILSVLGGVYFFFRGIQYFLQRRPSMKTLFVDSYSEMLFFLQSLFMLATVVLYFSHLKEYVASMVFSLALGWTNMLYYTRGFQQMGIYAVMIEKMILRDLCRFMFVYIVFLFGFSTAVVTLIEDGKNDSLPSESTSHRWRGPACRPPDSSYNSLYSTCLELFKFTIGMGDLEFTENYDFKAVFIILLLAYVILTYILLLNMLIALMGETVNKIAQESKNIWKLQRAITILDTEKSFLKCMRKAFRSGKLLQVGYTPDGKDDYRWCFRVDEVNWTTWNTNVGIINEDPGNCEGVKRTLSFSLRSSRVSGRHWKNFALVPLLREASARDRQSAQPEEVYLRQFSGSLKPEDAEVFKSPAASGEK
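Fluo-8 calcium influx in TRPV1-expressing cells, kinetic read (ex 480/em 520 nm). Compound added and read 3 min for agonist activity, followed by capsaicin at EC20 final and 2 min further read for enhancement.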
Sfp inh = qHTS Assay for Inhibitors of Bacillus subtilis Sfp phosphopantetheinyl transferase (PPTase); actives 3.5% (n = 310,000); Biochemical Sfp PPTase activity, qHTS; Potency, µM, inactives show max response, negative = inhibition, hits mostly inhibitors; 4'-phosphopantetheinyl transferase ffp (Bacillus subtilis), Q9F4F7; active = well fitted inhibition curve with a large enough effect; inconclusive = small, poorly fitted or top-dose-only effect, or another doubt; inactive = no such curve, though single readings can be large or run the other way;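 also: the enzyme is Sfp with the accession as filed and its product quenches rhodamine fluorescence; potency is read from the fitted curve at half-maximal effect; 0% = enzyme reaction without inhibitor and -100% = no enzyme wells; top concentration of the series not given in the record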
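With Hepes-Na pH 7.6 buffer containing 10 mM MgCl2, Sfp (15 nM) modified BHQ-2-YbbR (12.5 uM) using rhodamine-CoA (5 uM). Two reads 30 minutes apart at 525/598 nm yielded each well's rate.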
TRPML1 ag = qHTS for Agonists of the Human Mucolipin Transient Receptor Potential 1 (TRPML1); Mucolipin-1 (Homo sapiens), Q9GZU1; TRPML1-expressing cells, Ca2+ dye fluorescence, FDSS; host cell line not named in the record; reference of the full effect not given here; activation, % (test concentration not listed); actives 0.12% (n = 410,000); AID 624414, 2012; in the data active = activation above about 50%; inconclusive = about 30% to 50%; inactive = below about 30%; also: 0% is about no effect; the text of the record puts the active cut at 80%
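Tetracycline-induced TRPML1-DL cells are seeded and incubated overnight before loading with a no-wash Ca2+ dye and quencher. Agonist activity is taken from the 110 s fluorescence read following compound pin-transfer on an FDSS, before EC80 54-4 challenge.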
ClpP mod = qHTS Assay for Activators of ClpP. Potency, µM (series often up to 57.5 µM), for the others: at the highest dose activity change, negative = active. purified B. subtilis ClpP, FRET peptide cleavage, 20 min. actives 1.9% (n = 340,000). ATP-dependent Clp protease proteolytic subunit (Bacillus subtilis (strain 168)), P80244; active = well fitted falling curve with a large enough effect; inconclusive = small, poorly fitted or top-dose-only effect; inactive = no such curve, though single readings can be large or run the other way; also: potency is read from the fitted curve at half-maximal effect; the source files actives as falling curves though it sought activators and does not explain the sign; nearly all actives have a fitted effect of over 65% in size; many hits overshoot -100%
Target sequence (P80244 whole entry, looked up): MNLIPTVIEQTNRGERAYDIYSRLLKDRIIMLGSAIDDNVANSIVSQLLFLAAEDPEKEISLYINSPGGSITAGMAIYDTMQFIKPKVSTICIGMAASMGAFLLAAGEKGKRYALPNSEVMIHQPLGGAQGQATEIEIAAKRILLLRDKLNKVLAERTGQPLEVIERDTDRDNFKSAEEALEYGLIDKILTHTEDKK
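FRET quenching reversal measured ClpP activation: 10 microg/mL B. subtilis ClpP at pH 8 with the FRET-FV decapeptide, read at 430 nm after 320 nm excitation. The 20-min minus 0-min signal was scaled between DMSO/no-enzyme wells and ADEP (5.8 microM final).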
Numbers without * were called inactive; ? = inconclusive; nt = not tested or not shown; & = joins results of further samples; [ ] = dose if it differs, or a comment. The order is random, and some 4.4% of all compounds hit somewhere here.

canonical_smiles | TRPML1 blocker | PINK1 modulator | Menin MLL FP FL | TRPV1 potentiator | Sfp inh | TRPML1 ag | ClpP mod
CCOc1ccccc1NC(=O)CCNC(=O)c1ccc(Cl)cc1 | -13 | 3.5% | -3.2 | 29 | 14% | -1.2 | nt
COc1cccc(-c2ccc3c(N)c(C(=O)NC4CC4)sc3n2)c1 | -2 | -1.4% | -0.4 | 24 | 6% | 1.3 | 0.4%
[O-][n+]1c2ccccc2c2n1CCN1CCOC21c1ccc(Cl)cc1 (configuration not stated) | -6 | 0.4% | nt | -9 | nt | 2.0 | -2.8%
CC[C@@]1(c2ccccc2)C(=O)N(C(=O)OC)N1C(=O)OC | -4 | 1.6% | 0.1 | -14 | -25% | -0.5 | 2.1%
CN(Cc1ccccc1)c1nc2nonc2nc1N1CCCC(CN2CCCC2=O)C1 (configuration not stated) | 2 | -1.4% | -0.6 | 0 | 4% | 0.0 | -3.0%
COc1cccc(/C=N/Nc2nc(Nc3ccc([N+](=O)[O-])cc3)nc(N3CCCC3)n2)c1O | -9 | 2.2% | 1.3 | 5 | 7% | 0.6 | nt
CCOC(=O)C1=C(CN2CCOCC2)NC(=O)NC1c1cc(C)ccc1C (configuration not stated) | -6 | 0.3%[38.3 µM] | 4.2 | ? | 6% | -0.3 | -0.4%
COC(=O)Cn1cnc2c(cnn2-c2ccc(OC)cc2)c1=O | 4 | 4.2% | -2.8 | -23 | 25% | -0.6 | nt
Cc1ccccc1NC(=O)c1sc2nc(N3CCOCC3)c3c(c2c1N)CCCC3 | 6 | -0.6% | nt | 21 | ? | 0.6 | 4.1%
COC(c1ccccc1)c1nnc(CCC(=O)N(C)CCc2ccccc2)o1 (configuration not stated) | -2 | -1.0% | 2.4 | 25 | 8% | -0.6 | nt
O=C(CN1C(=O)CCc2cc(S(=O)(=O)N3CCOCC3)ccc21)NCc1ccc(Cl)cc1 | 4 | 0.3% | nt | nt | nt | -0.8 | 0.9%
CC1CCN(C(=O)c2ccccc2SCC(=O)NCC2CCCCC2)CC1 | -16 | 0.5% | nt | 0 | nt | -1.1 | 22µM*
NC(=O)c1cc([N+](=O)[O-])c(Cl)cc1NCc1cccnc1 | -8 | 0.3% | nt | 4 | nt | -0.8 | -2.4%
CC(C)N(C(=O)COC(=O)c1cccc(N(C)C)c1)c1ccccc1 | -8 | 0.6% | -1.9 | -12 | 1% | 0.0 | nt
COC(=O)c1cccc(S(=O)(=O)N2CCC(c3nc4ccccc4o3)CC2)c1 | -8 | 19%[38.3 µM] | 0.3 | 8 | 8% | 0.9 | 0.6%
CCOc1ccc(N=Nc2c(C)noc2C)cc1 | -4 | -0.1% | -2.3 | 1 | -2% | 0.3 | 1.0%
CC1(C)CC(=O)C=C(NCC(O)c2ccccc2)C1 (configuration not stated) | nt | 0.1% | 1.2 | 19 | 6% | nt | -3.7%
CC1=C(C(=O)OCC(C)C)C(c2ccc(F)cc2)NC(=O)N1 (configuration not stated) | 11 | nt | -0.2 | -1 | -6% | 1.2 | -1.4%
COc1ccc(/C=N/n2cnnc2SCc2ccccc2)cc1 | 14 | 6.6% | -0.1 | 5 | -1% | 2.9 | 1.1%
CCN(C(=O)c1sc2nc3n(c(=O)c2c1C)CCCC3)c1ccccc1F | -2 | 3.6% | nt | nt | nt | 0.3 | 0.1%
Cc1c(NS(=O)(=O)N2CCCC2)c(=O)n(-c2ccccc2)n1C | 0 | -0.5% | 1.0 | -26 | 23% | -0.7 | -1.3%
CC(=O)N1CCN(C(=O)COc2ccc3oc4c(c3c2)CCCC4)CC1 | 14 | 2.9% | nt | -2 | nt | -0.7 | -4.3%
O=C(O)Cn1c(COc2ccc(Cl)cc2)nc2ccccc21 | 21 | -1.0% | 3.3 | -1 | 7% | 0.8 | -0.1%
CC(=O)Nc1ccc(NC(=O)Cc2ccc(F)cc2)cc1 | nt | nt | 0.5 | 0 | 16% | nt | nt
CCN(CC)S(=O)(=O)c1ccc(N2CCOCC2)c(NC(=O)c2ccc(F)cc2)c1 | 11 | 1.6% | 1.0 | -8 | 4% | -1.0 | nt
COc1ccc(C)cc1NC(=S)N1CCOCC1 | 0 | 1.0% | nt | 0 | 3% | -0.3 | -1.8%
N#C/C(=C/c1ccc(Sc2nc3ccccc3[nH]2)o1)c1cccc(Br)c1 | -13 | 18µM* | 11 | 0 | 19% | -0.9 | -5.3%
CCOC(=O)C1(C)CCCN(C(=O)c2cccnc2SC)C1 (configuration not stated) | nt | 3.5% | nt | nt | nt | -0.7 | -3.4%
Cc1ccc(Cn2ccc(NC(=O)c3cc(-c4ccc5c(c4)OCO5)on3)n2)cc1 | 6 | 6.4%[38.3 µM] | 3.2 | -18 | 13% | -0.5 | -7.0%
O=C(CSc1ncn[nH]1)c1cc2ccccc2o1 | 5 | 4.0% | 4.6 | 8 | 14% | 2.1 | nt

Carrying on:
canonical_smiles | TRPML1 blocker | PINK1 modulator | Menin MLL FP FL | TRPV1 potentiator | Sfp inh | TRPML1 ag | ClpP mod
Cc1cccc(NC(=O)CNC(=O)c2cccc(-n3cccc3)c2)c1C | -5 | ? | nt | 22 | nt | 1.9 | -1.6%
COc1ccc(CNC(=O)Cn2c(=O)n(CC(=O)N3CCCCC3)c(=O)c3sccc32)cc1 | -14 | 1.1% | nt | 7 | 11% | 0.4 | -0.2%
CCOC(=O)c1c(S(=O)(=O)N2CCCC(C(=O)N3CCN(c4ccc(F)cc4)CC3)C2)c(C)n(C)c1C (configuration not stated) | -26 | -0.5% | nt | nt | nt | -0.8 | -3.6%
O=C1C(=O)c2ccccc2C(O)=C1CC=C(Cl)Cl | -6 | 0.3% | nt | nt | nt | 1.3 | 0.5%
O=C(Nc1ccc(F)c(Cl)c1)c1cc(C2CCCCN2C(=O)c2ccc(Cl)cc2)on1 (configuration not stated) | nt | 1.2% | nt | nt | nt | -0.1 | -5.2%
O=c1c2ccccc2nc2oc3ccccc3n12 | 2 | -0.9% | 1.8 | 1 | ? | 0.0 | nt
COc1cccc(-c2c(C(=O)N/N=C(\C)c3cccs3)nnn2-c2nonc2N)c1 | -17 | 3.0% | -9.7 | 0 | 13% | 1.8 | -0.3%
CCS(=O)(=O)N1CCC(C(=O)NCc2cccs2)CC1 | -11 | 2.5%[38.3 µM] | -3.4 | 0 | 7% | 1.8 | 0.2%
COc1cc(/C=C2/SC(=S)N(CCC(=O)Nc3ccc(C(=O)O)cc3)C2=O)cc(OC)c1OC | 2 | 1.6% | nt | 6 | -17% | 0.6 | -3.1%
O=C(CSCc1cccc(F)c1)NCc1ccccc1 | 3&-1 | -0.7%&1.6% | -3.1 | -23 | -12% | 1.0&2.2 | -1.0%
CCN(CC)CCNC(=O)CCCCn1c(=S)[nH]c2c([nH]c3ccc(OC)cc32)c1=O | 6 | 2.6%[38.3 µM] | -1.0 | 10 | ? | 0.2 | 10.0%
CCn1cc(C(=O)NCCO)c(=O)c2cc(F)c(N3CCN(C)CC3)cc21 | -2 | -1.3% | -7.4 | 7 | -9% | 0.6 | nt
CC1=CCC(C(C)(C)NC(=O)c2ccccc2)C/C1=N\O (configuration not stated) | -4 | 4.1%[38.3 µM] | nt | nt | nt | -0.4 | -0.4%
Cc1ccc(NC(=O)N2CCCCC2)cc1NC(=O)N1CCCCC1 | -6 | 0.6% | -1.3 | 1 | 16% | -0.1 | -0.2%
CCN(CC)c1ccc(NC(=O)c2cnn(CC)c2)cc1 | -6 | -1.1% | 9.2 | -7 | -9% | -1.1 | ?
O=S(=O)(NCCNS(=O)(=O)c1ccccc1)c1ccccc1 | 6 | 14%[38.3 µM] | -2.6 | 2 | 15% | -0.8 | 3.2%
Cc1ccc(NC(=O)N2CCC(C(=O)NCC(C)C)CC2)cc1 | 10 | 3.5%[38.3 µM] | 0.3 | 1 | 6% | -0.7 | 0.0%
CCOC(=O)c1c(C)c(C(=O)NCCc2ccc(S(N)(=O)=O)cc2)c(C)n1CC | -7 | 0.7% | 1.6 | -1 | 5% | -0.4 | -25%
CCn1nc(NS(=O)(=O)c2ccc(C)cc2)c2cc3ccccc3nc21 | 23 | -0.4% | nt | 27 | 6% | -0.6 | 0.4%
Cc1cc(NC(=O)/C(C#N)=C/c2ccco2)n(-c2ccccc2)n1 | 2 | 4.4% | 3.0 | 4 | -1% | 1.5 | nt
COc1ccc([C@H]2CC(=O)C=C(c3ccccc3)C2)cc1 | -1 | 3.7% | nt | -15 | nt | 0.3 | 0.1%
O=C(O)/C=C\c1cn(-c2ccccc2)nc1-c1cc2ccccc2o1 | 14 | -0.9% | -0.3 | -18 | -12% | -0.9 | nt
CN(C)c1ccc(/C=C/c2ccnc3ccc(Cl)cc23)cc1 | nt | 2.1% | nt | nt | nt | 5.3 | 1.8%
CC(C)n1nnnc1C1c2ccccc2C(=O)N1Cc1ccccc1 (configuration not stated) | nt | 4.7% | nt | nt | nt | -0.9 | 1.2%
N#Cc1cccc(OCCCN2CCC(C(O)(c3ccccc3)c3ccccc3)CC2)c1 | nt | 2.0% | nt | nt | nt | 6.5 | -4.7%
C[C@H](c1ccccc1)N1C[C@H](COCc2ccccc2)Oc2cc(N3CC[C@H](N(C)C)C3)ccc2S1(=O)=O | nt | -0.1% | nt | nt | nt | -0.7 | -15%
CC(=O)c1cccc(NC(=O)C2CC(=O)N(c3ccc4c(c3)OCCO4)C2)c1 (configuration not stated) | -3 | 6.2% | nt | -2 | nt | -0.5 | 1.0%
CCCCCc1cc(=O)oc2c(C(CCN(CC)CC)c3cc(OC)c(OC)c(OC)c3)c(OC)cc(OC)c12 (configuration not stated) | 6 | -1.0% | 2.8 | -34 | ? | 2.6 | -9.4%
